# Screens: PubChem, Broad Institute
# FGF22 binding: binders of human FGF22 protein, primary screen, FGF22 synaptogenesis inhibitor project, biophysical, thermal shift, single point | AID 651658, 2012 | recombinant FGF22 thermal shift, SYPRO orange fluorescence; percent of sucrose octasulfate shift, DMSO zero | Fibroblast growth factor 22 (Homo sapiens), Q9HCT0 | 1.5% of 340,000 active | calls only at 9.99 µM;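 active means melting point raised past a set limit in the mean and every replicate; three in four hits are not shown here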
# Target sequence (Q9HCT0 whole entry, looked up): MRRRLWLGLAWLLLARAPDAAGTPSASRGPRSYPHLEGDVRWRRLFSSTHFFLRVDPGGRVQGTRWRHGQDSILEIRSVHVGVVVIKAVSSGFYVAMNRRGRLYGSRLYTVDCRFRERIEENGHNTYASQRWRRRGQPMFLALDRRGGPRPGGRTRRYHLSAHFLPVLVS
# Ecoli rRNA inh: reduced GFP signal of wild-type E. coli, primary screen, bacterial rRNA inhibitor project, GFP/RFP fluorescence, OD600, single point. E. coli WT GFP vs humanized-ribosome RFP mutants, 24 h; stronger effect = lower value; DMSO median 0, no signal -100. GFP signal change (wild-type ribosome), % (concentration not given with the values). 1.6% of 350,000 active. AID 720706, 2013;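 active means significant combined selectivity score with lowered wild-type GFP, culture density cut under 30%, mutant RFP and density less affected; inactive means any of these conditions unmet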; further: one replicate is shown; some compounds called inactive have numbers as strong as hits
# Ecoli rRNA inh OD600: further read-out of Ecoli rRNA inh, marked with its call; OD600 change, %; measured here: OD600 growth;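 optical density of the mix in the first replicate; 0 = DMSO median and -100 = no signal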
# Ecoli rRNA inh RFP: also measured in Ecoli rRNA inh; calls as there; RFP signal change, %; measured here: RFP humanized mutant strains;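 first replicate; 0 = DMSO median and -100 = no signal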
# Active calls of the source: *; i = inactive.
canonical_smiles,FGF22 binding,Ecoli rRNA inh,Ecoli rRNA inh OD600,Ecoli rRNA inh RFP
CCCC(=O)Nc1ccc2c(c1)C(=O)N(C)C[C@H](OC)[C@H](C)CN(Cc1ccccn1)[C@@H](C)CO2,i,1,7,-1.3
C[C@H](CO)N1C[C@H](C)[C@H](CN(C)C(=O)Nc2ccc(C(F)(F)F)cc2)Oc2ccc(N(C)C)cc2CC1=O,i,4,-3,-1.4
C[C@@H](NC(=O)C[C@H]1CC[C@@H]2[C@H](COC[C@@H](O)CN2C(=O)Nc2cccc(F)c2)O1)c1ccccc1,i,-7,-4,-2.0
C[C@@H]1CN([C@@H](C)CO)C(=O)c2cc(NC(=O)Cc3cn(C)c4ccccc34)ccc2O[C@@H]1CN(C)S(=O)(=O)c1cn(C)cn1,i,5,3,1.5
CO[C@H]1CC[C@H]2CCOc3c(C#N)cccc3C(=O)N(C)C[C@H](OC)[C@@H](C)C(=O)N(C)C[C@H]1O2,i,1,2,3.6
COc1ccc(NC(=O)Nc2cccc3c2O[C@@H](CN(C)Cc2ccc(C(=O)O)cc2)[C@@H](C)CN([C@@H](C)CO)C3=O)cc1,i,2,7,-2.3
COc1cccc(-c2ccc3c(c2)[C@@H]2[C@@H](CCN2S(=O)(=O)c2ccccc2C)[C@H](CO)N3C)c1,i,1,11,-0.8
CO[C@H]1CN(C)C(=O)c2cc(NS(=O)(=O)c3ccccc3C)ccc2OC[C@H](C)NC[C@@H]1C,i,4,2,0.3
CC(C)C#Cc1ccc2c(c1)O[C@@H](CN(C)C(=O)c1ccccc1)[C@@H](C)CN([C@@H](C)CO)S2(=O)=O,i,0,-11,6.6
COc1ccc(S(=O)(=O)Nc2ccc3c(c2)CC(=O)N([C@H](C)CO)C[C@@H](C)[C@H](CN(C)C(=O)Nc2ccccc2)O3)cc1,i,4,10,-0.1
COc1ccc(S(=O)(=O)N(C)C[C@H]2OCCCC[C@@H](C)Oc3ccc(NC(=O)Nc4ccc(F)cc4)cc3C(=O)N([C@@H](C)CO)C[C@@H]2C)cc1,i,1,4,4.5
COc1ccc2c3c(n(C)c2c1)[C@H](CO)NCC31CCN(C(=O)CC2CC2)CC1,i,1,11,2.7
CC(C)NC(=O)Nc1ccc2c(c1)C(=O)N([C@@H](C)CO)C[C@@H](C)[C@@H](CN(C)C(=O)NC(C)C)O2,i,0,4,0.2
O=C(N[C@@H]1CC[C@@H](CCn2cc(-c3ccccn3)nn2)O[C@H]1CO)c1ccccc1,i,-1,1,-2.1
COCC#Cc1cnc2c(c1)C(=O)N([C@H](C)CO)C[C@H](C)[C@H](CN(C)C(=O)C1CCC1)O2,i,5,3,-2.1
Cc1ccc(S(=O)(=O)Nc2ccc3c(c2)CC(=O)N([C@@H](C)CO)C[C@@H](C)[C@@H](CN(C)CC2CC2)O3)cc1,i,3,14,-4.0
COc1cccc(C#Cc2cnc3c(c2)C(=O)N([C@H](C)CO)C[C@@H](C)[C@@H](CN(C)C(=O)C2CC2)O3)c1,i,-2,-4,0.1
CNC[C@@H]1Oc2ccc(NC(=O)Cc3cn(C)c4ccccc34)cc2CC(=O)N([C@H](C)CO)C[C@H]1C,i,3,-4,-0.2
COc1ccccc1C#Cc1ccc([C@H]2[C@@H](CO)N3CCCCN(CCC(F)(F)F)C[C@@H]23)cc1,i,-57,-73,-5.5
CN1C(=O)c2cc(NC(=O)C3CC3)ccc2OC[C@@H]2O[C@@H](CC(=O)NCCc3ccncc3)CC[C@@H]21,i,2,13,-4.4
CO[C@H]1CN(C)C(=O)c2cc(NS(=O)(=O)c3cccc(F)c3)ccc2OC[C@H](C)NC[C@@H]1C,i,2,1,-2.1
C[C@@H](NC(=O)C[C@@H]1C[C@@H]2c3cc(NC(=O)Nc4ccccc4F)ccc3O[C@@H]2[C@@H](CO)O1)c1ccccc1,i,-2,0,5.6
CN1[C@H](C(=O)Nc2ccccc2)[C@@H](CO)[C@@H]2Cn3c(ccc(-c4ccccc4)c3=O)[C@@H]21,i,-3,-8,-1.3
CCCNC(=O)N1C[C@H]2[C@@H](c3ccccc31)[C@@H](CO)N2Cc1ccccc1F,i,0,4,-3.9
C[C@@H]1CN([C@H](C)CO)C(=O)c2cc(NC(=O)C3CCCCC3)ccc2O[C@@H]1CN(C)S(C)(=O)=O,i,5,6,-0.3
COc1ccc(-c2ccc3n(c2=O)C[C@H]2[C@H](CO)[C@@H](C(=O)NCC4CC4)N(C(=O)NC(C)C)[C@@H]32)cc1,i,1,5,0.6
COc1ccc(NC(=O)N(C)C[C@@H]2Oc3ccc(NC(=O)CCCCCC(=O)Nc4ccccc4N)cc3CC(=O)N([C@H](C)CO)C[C@@H]2C)cc1,i,1,-1,-0.5
Cc1ccc(S(=O)(=O)N(C)C[C@@H]2Oc3ccc(NC(=O)Nc4cccc5ccccc45)cc3CC(=O)N([C@@H](C)CO)C[C@H]2C)cc1,i,0,-1,0.4
COc1ccc(CN(C)C[C@H]2OCCCC[C@@H](C)Oc3ccc(NC(=O)CCCN(C)C)cc3C(=O)N([C@@H](C)CO)C[C@H]2C)cc1,i,5,9,1.3
C[C@H](CO)N1C[C@H](C)[C@@H](CN(C)Cc2ccc(-c3ccccc3)cc2)Oc2ccc(NC(=O)Cc3cn(C)c4ccccc34)cc2C1=O,i,10,10,1.9

# Reformatted with each value named: entries from further up.
compound: O=C(N[C@@H]1CC[C@@H](CCn2cc(-c3ccccn3)nn2)O[C@H]1CO)c1ccccc1
  FGF22 binding: i; Ecoli rRNA inh: -1; Ecoli rRNA inh OD600: 1; Ecoli rRNA inh RFP: -2.1

compound: COCC#Cc1cnc2c(c1)C(=O)N([C@H](C)CO)C[C@H](C)[C@H](CN(C)C(=O)C1CCC1)O2
  FGF22 binding: i; Ecoli rRNA inh: 5; Ecoli rRNA inh OD600: 3; Ecoli rRNA inh RFP: -2.1

# Next section
canonical_smiles,FGF22 binding,Ecoli rRNA inh,Ecoli rRNA inh OD600,Ecoli rRNA inh RFP
C[C@@H]1CN([C@@H](C)CO)C(=O)c2cccc(NS(=O)(=O)c3cn(C)cn3)c2O[C@@H]1CN(C)Cc1ccc(-c2ccccc2)cc1,i,2,-2,-1.4
Cc1cc(C(=O)Nc2ccc3c(c2)C(=O)N(C)[C@@H]2CC[C@H](CC(=O)NCc4ccc(-c5ccccc5)cc4)O[C@@H]2CO3)no1,i,-7,-7,-0.4
Cc1noc(C)c1NC(=O)Nc1ccc2c(c1)C(=O)N([C@@H](C)CO)C[C@@H](C)[C@H](CN(C)C(=O)NC1CCCCC1)OCCCC[C@@H](C)O2,i,-3,-4,0.4
CCCC(=O)Nc1ccc2c(c1)C(=O)N(C)C[C@@H](OC)[C@@H](C)CN(C(=O)c1cccnc1)[C@H](C)CO2,i,1,2,1.2
C[C@@H]1CN([C@H](C)CO)C(=O)c2cccc(NC(=O)Nc3ccc(F)cc3)c2O[C@@H]1CN(C)S(=O)(=O)c1ccc(Cl)cc1,i,-3,-7,-1.3
Cc1noc(C)c1S(=O)(=O)N(C)C[C@@H]1OCCCC[C@@H](C)Oc2ccc(NC(=O)NC3CCCCC3)cc2C(=O)N([C@H](C)CO)C[C@H]1C,i,1,1,-0.1
C[C@H](CO)N1C[C@H](C)[C@@H](CN(C)S(C)(=O)=O)Oc2ccc(NS(=O)(=O)c3cn(C)cn3)cc2CC1=O,i,5,6,-3.8
COc1ccccc1-c1cnc2c(c1)C(=O)N([C@H](C)CO)C[C@H](C)[C@@H](CN(C)Cc1ccc(C(=O)O)cc1)O2,i,2,4,0.0
C[C@@H]1CCCCO[C@@H](CN(C)Cc2ccc(C(=O)O)cc2)[C@H](C)CN([C@H](C)CO)C(=O)c2cc(NC(=O)Nc3ccc(C(F)(F)F)cc3)ccc2O1,i,-1,-6,5.4
COc1ccc(CNS(=O)(=O)c2cc(Cl)ccc2N2CC[C@@H](O)C2)cc1,i,-51,-67,-9.7

# Reprinted at random: 3 entries already listed.
canonical_smiles,FGF22 binding,Ecoli rRNA inh,Ecoli rRNA inh OD600,Ecoli rRNA inh RFP
COc1ccc(CNS(=O)(=O)c2cc(Cl)ccc2N2CC[C@@H](O)C2)cc1,i,-51,-67,-9.7
C[C@@H]1CN([C@@H](C)CO)C(=O)c2cccc(NS(=O)(=O)c3cn(C)cn3)c2O[C@@H]1CN(C)Cc1ccc(-c2ccccc2)cc1,i,2,-2,-1.4
C[C@@H]1CN([C@H](C)CO)C(=O)c2cccc(NC(=O)Nc3ccc(F)cc3)c2O[C@@H]1CN(C)S(=O)(=O)c1ccc(Cl)cc1,i,-3,-7,-1.3

# Following part.
# Results follow in this order: FGF22 binding | Ecoli rRNA inh | Ecoli rRNA inh OD600 | Ecoli rRNA inh RFP
> C[C@@H]1CCCCO[C@@H](CN(C)C(=O)Cc2ccccc2)[C@@H](C)CN([C@@H](C)CO)C(=O)c2cc(NC(=O)Nc3ccc(C(F)(F)F)cc3)ccc2O1
  i | 1 | 5 | -0.6
> CCC(=O)Nc1ccc2c(c1)OC[C@H](C)N(Cc1nccs1)C[C@H](C)[C@@H](OC)CN(C)C2=O
  i | 0 | -10 | 0.2
> COc1ccc(NC(=O)N(C)C[C@H]2Oc3c(NS(C)(=O)=O)cccc3C(=O)N([C@@H](C)CO)C[C@H]2C)cc1
  i | 1 | -2 | 1.1
> Cc1noc(C)c1S(=O)(=O)Nc1ccc2c(c1)CC(=O)N([C@H](C)CO)C[C@H](C)[C@H](CN(C)C(=O)NC(C)C)O2
  i | 4 | 5 | -0.9
> Cc1noc(C)c1S(=O)(=O)Nc1ccc2c(c1)CC(=O)N([C@@H](C)CO)C[C@H](C)[C@@H](CN(C)S(=O)(=O)c1ccc(Cl)cc1)O2
  i | -5 | -6 | 4.4
> C[C@H](CO)N1C[C@H](C)[C@H](CN(C)S(=O)(=O)c2cccc(F)c2)Oc2ncc(C#CC(C)(C)O)cc2C1=O
  i | -1 | -4 | -1.0
> CO[C@H]1CN(C)C(=O)c2ccc(NC(=O)CC(F)(F)F)cc2OC[C@H](C)N(C(=O)C2CC2)C[C@H]1C
  i | 0 | 0 | 1.7
> O=S(=O)(NCC[C@@H]1CC[C@H](NS(=O)(=O)c2ccccc2Cl)[C@H](CO)O1)c1ccc(Cl)cc1
  i | -7 | 2 | 2.4
> CC(C)CC#Cc1cnc2c(c1)C(=O)N([C@@H](C)CO)C[C@H](C)[C@H](CN(C)C(=O)c1cnccn1)O2
  i | 3 | 2 | 1.3
> COC(=O)[C@H]1[C@H](CO)[C@H]2Cn3c(cccc3=O)[C@H]2N1CC1CCOCC1
  i | 4 | 10 | -4.4
> C[C@H](O)C#Cc1cnc2c(c1)C(=O)N([C@@H](C)CO)C[C@@H](C)[C@@H](CN(C)C(=O)Cc1ccccn1)O2
  i | 8 | 13 | -0.5
> CN1CCCCN2[C@H](CO)[C@H](c3ccc(C#CC4(O)CCCC4)cc3)[C@H]2C1
  i | 6 | 1 | 0.0
> C[C@@H]1CCCCO[C@@H](CN(C)C(=O)c2ccncc2)[C@@H](C)CN([C@@H](C)CO)C(=O)c2cc(NC(=O)C3CCCCC3)ccc2O1
  i | 0 | 4 | -5.1
> COc1ccc(CN(C)C[C@H]2OCCCC[C@H](C)Oc3ccc(NC(=O)Nc4ccc(C(F)(F)F)cc4)cc3C(=O)N([C@@H](C)CO)C[C@@H]2C)cc1
  i | -14 | -1 | 8.0
> CCCN(C)C[C@@H]1Oc2cc(Br)ccc2S(=O)(=O)N([C@@H](C)CO)C[C@@H]1C
  i | 5 | 11 | -4.2
> CNC(=O)C[C@H]1CC[C@H]2[C@@H](COc3ccc(NC(=O)c4ccccc4F)cc3C(=O)N2C)O1
  i | 0 | -1 | -0.9
> CO[C@H]1CN(C)C(=O)c2cc(NC(=O)C3CCCC3)ccc2OC[C@@H](C)N(CCC(F)(F)F)C[C@@H]1C
  i | -6 | -8 | 1.0
> C[C@H]1CN([C@@H](C)CO)C(=O)c2cccc(NS(=O)(=O)c3cccs3)c2O[C@H]1CN(C)Cc1ccc(C(=O)Nc2ccccc2N)cc1
  i | -3 | -12 | -4.2
> Cc1ccc(S(=O)(=O)N(C)C[C@@H]2Oc3c(NC(=O)Nc4c(C)noc4C)cccc3C(=O)N([C@H](C)CO)C[C@H]2C)cc1
  i | 3 | -2 | -1.7
> CC(=O)NC[C@@H]1[C@H](c2ccc(-c3ccccc3)cc2)[C@H](CO)N1C(=O)C1CC1
  i | -3 | -5 | -2.3
> CC(=O)N1[C@H](C(=O)Nc2ccccc2)[C@@H](CO)[C@@H]2Cn3c(ccc(C4=CCCC4)c3=O)[C@@H]21
  i | 9 | 19 | -1.0
> C/C=C/c1ccc2c(c1)O[C@@H](CN(C)C(=O)Cc1ccccn1)[C@H](C)CN([C@@H](C)CO)S2(=O)=O
  i | 1 | 6 | -1.0
> C[C@@H](O)C#Cc1ccc2c(c1)O[C@@H](CN(C)CC1CCOCC1)[C@@H](C)CN([C@@H](C)CO)S2(=O)=O
  i | 4 | 7 | -3.3
> COc1ccccc1CNC(=O)C[C@H]1CC[C@H]2[C@@H](COc3ccc(NS(=O)(=O)c4ccc(C)cc4)cc3C(=O)N2C)O1
  i | -3 | -10 | 6.9
> COc1ccc(S(=O)(=O)N(C)C[C@H]2Oc3cc(C#CC4CCCC4)ccc3S(=O)(=O)N([C@H](C)CO)C[C@H]2C)cc1
  i | -1 | -4 | -2.1
> COc1ccccc1-c1cnc2c(c1)C(=O)N([C@H](C)CO)C[C@H](C)[C@H](CN(C)C)O2
  i | -4 | 1 | 1.3

# Only part of the results is shown (hit frequency here may not be typical).
